VDR inhibitor: vitamin D3 receptor (human) inhibition; P11473; VDR-SRC2-3 peptide fluorescence polarization, 2 h; Potency, µM, without a hit: max response, negative = inhibition, usual class: inhibitors; actives 0.93% (n = 400,000); active means well fitted inhibition curve with a large enough effect; inconclusive means small, poorly fitted or top-dose-only effect, or another doubt; inactive means no such curve, though single readings can be large or run the other way; further: series mostly up to about 120 µM
Target sequence (P11473 whole entry, looked up): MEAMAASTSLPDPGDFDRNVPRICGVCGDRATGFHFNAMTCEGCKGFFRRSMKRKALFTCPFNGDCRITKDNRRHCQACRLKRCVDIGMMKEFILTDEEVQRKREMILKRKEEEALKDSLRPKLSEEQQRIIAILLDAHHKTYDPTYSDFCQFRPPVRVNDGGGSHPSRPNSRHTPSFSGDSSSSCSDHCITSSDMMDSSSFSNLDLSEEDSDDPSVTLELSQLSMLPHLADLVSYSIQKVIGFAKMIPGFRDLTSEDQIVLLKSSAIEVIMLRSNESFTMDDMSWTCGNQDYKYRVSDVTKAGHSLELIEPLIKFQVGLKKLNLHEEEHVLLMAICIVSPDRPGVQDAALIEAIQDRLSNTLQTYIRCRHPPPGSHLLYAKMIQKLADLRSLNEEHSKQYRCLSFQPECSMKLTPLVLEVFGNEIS
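Fluorescence polarization assay of small-molecule disruption of VDR binding to coregulator peptide SRC2-3. Compounds and controls pin-transferred, then read after 2 h incubation at ambient room temperature.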
Numbers without * were called inactive; ? = inconclusive; & = joins results of further samples; [ ] = another dose, or the depositor's remark. On the % scale 0 is the no-effect control and ±100 the full control effect; potency means the concentration at half of the fitted maximal effect. The list is partial. The share of hits here may be higher or lower than overall.

#	molecule	VDR inhibitor
1	Clc1ccc(N2CCN(Cc3ccc(Br)o3)CC2)cc1	1.1%
2	CCN(CC)S(=O)(=O)c1ccc(N2CCCCC2)c(NC(=O)/C=C/c2cc(OC)c(OC)c(OC)c2)c1	-8.8%
3	COc1ccc2nc(NC(=O)c3sc4nc(C)cc(C)c4c3N)sc2c1	-19.3%
4	Cc1ccc(S(=O)(=O)N2CCOCC2)cc1C(=O)Nc1cccc(S(=O)(=O)N2CCCC2)c1	-12.4%
5	Nc1nonc1-n1nnc(C(=O)N/N=C/c2ccccc2F)c1CN1CCc2ccccc21	?
6	Cc1nc(-c2cccc3ccccc23)ccc1C(=O)O	-0.3%
7	COc1ccc(CC(NC(C)=O)C(=O)NC2CCN(c3nc(C)cc(C)c3C#N)CC2)cc1OC (stereo unspecified)	-6.7%
8	COC(=O)c1ccc2c(=O)n(Cc3ccc4c(c3)OCO4)c(=S)[nH]c2c1	-7.6%
9	CCCc1ccc(C2C3=C(CC(C)(C)CC3=O)NC3=C2C(=O)c2ccccc23)cc1 (stereo unspecified)	-10.5%
10	O=C1C=C(c2cccc(O)c2)CCC1	-12.0%

Of the compounds above, two have two or more sulfur atoms:
#	molecule	VDR inhibitor
3	COc1ccc2nc(NC(=O)c3sc4nc(C)cc(C)c4c3N)sc2c1	-19.3%
4	Cc1ccc(S(=O)(=O)N2CCOCC2)cc1C(=O)Nc1cccc(S(=O)(=O)N2CCCC2)c1	-12.4%

Looked up above:
VDR inhibitor result of no. 4 : -12.4%
VDR inhibitor result of no. 7 : -6.7%

The results go on.
#	molecule	VDR inhibitor
11	Cc1ccc(C(=O)c2ccccc2C(=O)OCC(=O)NCC2CCCO2)cc1 (stereo unspecified)	8.1%
12	O=C(Cn1cnc2ccccc21)N/N=C/C(Br)=C/c1ccccc1	4.9%
13	O=C(O)c1ccc(Cn2nnc3sc4c(c3c2=O)CCCC4)cc1	-12.6%
14	C[N+]1(C)CCc2cc3c(cc2[C@@H]1[C@@H]1C(=O)Oc2c1ccc1c2OCO1)OCO3	6.6%&-3.9%
15	Cc1cccc(-n2c(O)c(C=NC3CCS(=O)(=O)C3)c3ccccc3c2=O)c1C (stereo unspecified)	12.8%
16	CC(=NNC(=S)Nc1ccc(C)cc1)c1ccccn1	-26.2%
17	CC1=CC(C)(C)Nc2ccc(OC(=O)c3cccnc3)cc21	-12.1%
18	CCOC(=O)Cn1c(=N)n(Cc2ccccc2F)c2ccccc21	-2.9%
19	CCc1ccc2c(c1)C1(NN=C(c3ccc(C)cc3)S1)C(=O)N2 (stereo unspecified)	-14.4%
20	O=C(c1ccc2c(c1)N(Cc1ccccc1)C(=O)c1ccccc1S2)N1CCCC1	-14.1%

(list continues)
#	molecule	VDR inhibitor
21	COc1ccc(-c2nnc(SCC(=O)c3ccc(NC(C)=O)cc3)o2)cc1OC	6.1%
22	COc1ccc(/C=C/C(=O)Nc2cc(F)ccc2C)cc1S(=O)(=O)N1CCOCC1	19.5%
23	Cc1ccc(NS(=O)(=O)c2ccc3c(c2)CC(=O)N3)cc1Cl	-16.8%
24	COCCCNC(=O)c1cc(=O)n(Cc2ccc(Cl)cc2)c2ccccc12	17.7%
25	Cc1ccc(-c2nn(-c3ccc(F)cc3)cc2C(=O)NCCCN2CCCC2=O)cc1	-22.7%
26	O=c1c2[nH]c3ccc(F)cc3c2ncn1C1CCCCC1	11.3%
27	CC1(C)C/C(=C(/C#N)C(N)=O)CCO1	11.6%
28	CCN(CC)S(=O)(=O)c1ccc(N2CCOCC2)c(NC(=O)c2ccc(N3CCCC3=O)cc2)c1	-0.6%
29	COc1ccc(NC(=O)C(=O)NCCc2ccccc2)cc1OC	1.0%
30	Cc1[nH]n(C)c(=O)c1[N+](=O)[O-]	28.0%

(further entries)
#	molecule	VDR inhibitor
31	O=C(NCCSc1c[nH]c2ccccc12)c1c(F)cccc1F	-18.8%
32	C/C(=N\NC(=O)c1cccnc1)c1ccc(-c2ccccc2)cc1	14.6%
33	CCN(CC(=O)Nc1c(F)cccc1F)C(=O)c1ccc(Sc2nncn2C)c([N+](=O)[O-])c1	-0.9%
34	CCOC(=O)c1csc(NC(=O)c2ccc(S(=O)(=O)N(CC)CC)cc2)n1	1.6%
35	CCOC(=O)c1c2ccc(OCC(=O)N/N=C/c3ccc(C)cc3)cc2n2ccccc12	1.7%
36	Cc1cc(NC(=O)CSc2nnc(COc3cccc(C)c3C)n2C)no1	-2.9%
37	COc1ccc(NC(=O)Cc2nnc(SCC(=O)Nc3cc(C)ccc3OC)n2C)cc1	8.0%
38	Cc1cc(-c2nnc(SCC(=O)Nc3ccc(C(F)(F)F)cc3)n2C)no1	-8.3%
39	CCOc1ccc(C(=O)OC(C)CN2CCCCC2)cc1 (stereo unspecified)	-5.5%
40	CCn1c(=S)sc2c(=O)n(CC(=O)Nc3ccc(OC)c(Cl)c3)c(C)nc21	18.0%

(next part)
#	molecule	VDR inhibitor
41	COc1cccc(/C=N/n2c(SC)nnc2-c2ccccc2)c1OC	19.6%
42	CCOC(=O)c1nnn(-c2nonc2N)c1-c1ccc(Cl)cc1	-16.8%
43	CCN1CCN(c2c(Cl)cccc2NC(=O)c2ccco2)CC1	4.7%
44	O=C(Nc1ccc(Cl)c(S(=O)(=O)Nc2ccccc2Cl)c1)c1cccs1	21.8%
45	O=C(Cc1ccccc1)N/N=C/c1ccccn1	-2.7%
46	CC(C)(C#CC(O)(c1ccccc1)c1ccccc1)N1CCCC1	-11.2%
47	CC(Sc1ccc(S(=O)(=O)N2CCOCC2)cc1[N+](=O)[O-])C(=O)O (stereo unspecified)	-12.0%
48	CCOc1ccc(C2/C(=C(/O)c3ccc(F)cc3)C(=O)C(=O)N2CCCN(C)C)cc1 (stereo unspecified)	1.8%
49	CC(c1ccc(C(C)(C)C)cc1)S(=O)CC(O)CO (stereo unspecified)	-1.4%
50	Cn1c(=O)c(NCCO)c2c3c(cccc31)C(=O)c1ccccc1-2	-0.9%

Additional records
#	molecule	VDR inhibitor
51	CC(=O)c1cc2c(cc1NC(=O)c1c(C)nn(-c3ccc(C)cc3)c1-n1cccc1)OCO2	9.7%
52	CCn1c(NC(=S)Nc2ccccc2)nc2ccccc21	-3.2%
53	COC(=O)CN1C(c2cccc(Cl)c2)=Nc2ccc(Cl)cc2C1c1ccccc1 (stereo unspecified)	-7.1%
54	CCN1C(=O)[C@H]2[C@@H](c3ccc(-c4cccc(Cl)c4)c(OC)c3)N[C@@](C)(C(=O)OC)[C@H]2C1=O	-14.5%
55	c1cc2c3c(cccc3c1)NC1(CCCCC1)N2	-1.1%
56	CCOC(=O)[C@@H]1[C@H]2COc3cc(OC)ccc3[C@H]2N2C(=O)N(c3ccc(C(F)(F)F)cc3)C(=O)[C@]12C	3.9%
57	COc1ccccc1NC(=O)c1oc2ccccc2c1NC(=O)COc1cccc(C)c1	-16.3%
58	C=CCn1c(N(C)C)nc2c1c(=O)[nH]c(=O)n2C	-17.3%
59	O=C(NCCc1ccc(Cl)cc1)c1cc(S(=O)(=O)N2CCCCC2)c[nH]1	-8.4%
60	COC(=O)CCc1c(C)nn(-c2ccccc2)c1C	-2.6%

Next section
#	molecule	VDR inhibitor
61	O=C(CCl)Nc1ccc(S(=O)(=O)Nc2nccs2)cc1	-17.4%
62	Cc1ccc(NC(=O)Cn2c(=O)n(CCCC(=O)NCc3ccc4c(c3)OCO4)c(=O)c3ccccc32)cc1	-16.8%
63	Cc1ccccc1CN(c1ccc(C(=O)N2CCc3ccccc3C2)cc1)S(C)(=O)=O	6.2%
64	CCOC(=O)Nc1ccc(S(=O)(=O)Nc2nc(C)cc(C)n2)cc1	9.2%
65	O=C(Cn1c(=O)oc2ccccc21)Nc1nnc(N2CCCCCC2)s1	7.8%
66	CN(C(=O)C1CCCO1)c1nnc(-c2cnccn2)s1 (stereo unspecified)	-9.0%
67	O=C(Nc1ccc(Cl)cc1)NC1CCCC1Cc1ccco1 (stereo unspecified)	0.8%
68	COc1ccccc1-n1c(COc2ccccc2-c2ccccc2)nnc1SCC(=O)c1c(N)n(C)c(=O)n(C)c1=O	1.0%
69	CCc1[nH]nc2c1C(C(C)C)C(C#N)=C(N)O2 (stereo unspecified)	14.4%
70	CCN1CCN(C2CCCCC2NS(=O)(=O)c2ccccc2)CC1 (stereo unspecified)	-3.4%

Following part:
#	molecule	VDR inhibitor
71	COc1ccc2nc(NC(=O)CSc3nnc(-c4ccoc4C)n3C)sc2c1	-3.0%
72	CC(=O)N1CCc2cc(S(=O)(=O)CCC(=O)Nc3ccc(Cl)cc3F)ccc21	-19.8%
73	CCN(CC)C(=O)c1sc2c(c1C)c(=O)n(CCc1ccccc1)c(=O)n2Cc1cccc(Cl)c1	10.1%
74	CNC(=O)NC(=O)CSc1nnc(C(F)(F)F)n1C	-0.2%
75	O=C(O)CCC(=O)NCCc1cccc(Cl)c1	-14.8%
76	COc1ccc(CCNC(=O)NC23CC4CC(CC(C4)C2)C3)cc1	3.9%
77	Cc1ccc(C(=O)N2CCCC(c3ccccc3)=N2)cc1	-18.3%
78	C/C(=N/NS(=O)(=O)c1cccc([N+](=O)[O-])c1)c1ccncc1	28.2µM*
79	CCCOc1ccc(-c2nn(-c3ccccc3)cc2/C=C2\SC(N)=NC2=O)cc1C	-3.1%
80	CCN(C(=O)C(C)OC(=O)c1nn(-c2ccccc2C(F)(F)F)cc1O)c1ccccc1 (stereo unspecified)	-16.7%

Other records follow:
#	molecule	VDR inhibitor
81	COc1ccc(NC(=O)CSc2nc(C)c3c(c2C#N)CCCC3)cc1	6.5%
82	Cc1nc(-n2nc(C)c(Cc3ccc(Cl)cc3)c2C)sc1C(=O)N1CCC(C)CC1	2.6%
83	Cc1ccc(OCC(=O)Nc2nnc(SCc3cc(=O)c4ccccc4[nH]3)s2)cc1C	10.2%
84	Cc1cccc(N2CCN(C(=S)NCc3ccco3)CC2)c1C	-15.0%
85	O=C(O)C1CCCCC1C(=O)Nc1ccccc1Cl (stereo unspecified)	5.1%
86	CC(NC(=O)Cn1c(NCCO)nc2ccccc21)C1CC2CCC1C2 (stereo unspecified)	-6.7%
87	CC1(C)C[C@@H]2C[C@@](C)(CN2C(=O)c2ccccc2)C1	-10.7%
88	CCOc1ccc(CONS(=O)(=O)c2ccc(NC(C)=O)cc2)cc1Cl	6.7%
89	Cc1cc(C)n(/N=C/c2cc([N+](=O)[O-])ccc2O)c(=O)c1	15.2%
90	COc1ccc2c(c1)C(=O)[C@H](OC(=O)NS(=O)(=O)c1ccc(C)cc1)[C@@H](c1ccc(OC)c(Br)c1)O2	2.7%

(listing goes on)
#	molecule	VDR inhibitor
91	O=C1C2C3CCC(C3)C2C(=O)N1CNc1ccc(F)cc1 (stereo unspecified)	1.1%
92	COC(=O)c1cc2oc3ccccc3c2n1Cc1c(C)cc(C)cc1C	5.0%
93	O=C(Nc1ccc(NC(=O)c2cccs2)cn1)c1ccco1	-4.9%
94	O=[n+]1cc(-c2ccc(F)cc2)n([O-])c2c1CCC2	-5.0%
95	Cc1nc2ccccn2c(=O)c1NC(=O)c1cccs1	7.7%
96	O=C(NNC(=O)c1ccc2ccccc2c1O)Nc1ccc(F)cc1	-15.0%
97	Cc1noc(C)c1C(=O)OCC(=O)c1cc(C)n(Cc2ccccc2Cl)c1C	-6.0%
98	CCN(CC)S(=O)(=O)c1ccc(/C=C/C(=O)OCC(=O)Nc2ccc(C(N)=O)cc2)cc1	2.3%
99	Cc1ccc(S(=O)(=O)Nc2ccc3ncccc3c2)cc1	-15.3%
100	Cc1[nH]c2ccc(OCc3ccccc3)cc2c1CCN1C(=O)OC(C)(C)C1(C)O (stereo unspecified)	3.5%

(continued)
#	molecule	VDR inhibitor
101	COc1cc(CCCN2C(=S)NC[C@@H]2Cc2ccccc2)cc(OC)c1OC	-17.7%
102	Cc1c(C#N)c(N)nc2c3c(sc12)NC(=O)CC3c1ccccc1 (stereo unspecified)	-2.7%
103	CN(C)Cc1ccccc1-c1nc(NCc2ccccc2)c2ccccc2n1	0.7%
104	C=CC(=O)NCCCc1cc(C(C)(C)C)c(O)c(C(C)(C)C)c1	-6.1%
105	Cc1ccnc(NS(=O)(=O)c2ccc(NC(=O)c3snnc3C)cc2)n1	-10.5%
106	CC(=O)N1N=C(c2ccc3ccccc3c2)OC12CCCC2	19.5%
107	Cc1ccc(-c2cc(C(=O)N3CCCc4ccccc43)no2)cc1	5.6%
108	CC/C(=N\NC(=S)Nc1cccc(C)c1)c1ccccc1	2.3%
109	Cc1cc(NS(=O)(=O)c2ccc(NC(=O)COc3ccc(Cl)cc3Cl)cc2)no1	-5.6%
110	CC(Sc1nnc(CN2CCCC2)n1Cc1ccccc1)C(=O)Nc1ccccc1 (stereo unspecified)	20.6%

Additional entries follow.
#	molecule	VDR inhibitor
111	CC(C)Nc1nc(NC(C)C)nc(N(C)n2cnnc2)n1	-0.6%
112	O=C(Cn1cnc(S(=O)(=O)N2CCCC2)c1)Nc1cccc(Br)c1	-7.9%&5.9%
113	CC(=O)c1ccc(NC(=O)c2ccn[nH]2)cc1	-5.5%
114	COc1ccc(C2=NC(C(F)(F)F)(C(F)(F)F)c3c(n(C)c(=O)n(C)c3=O)N2)cc1	31.6%[activator]
115	CC(=O)Nc1ccc(NC(=O)c2cc(-n3cnnc3)ccc2Cl)cc1	-13.7%
116	COC(CN(C)C(=O)C1CCCN(S(=O)(=O)c2ccc3c(c2)oc(=O)n3C)C1)OC (stereo unspecified)	9.4%
117	C=CCn1cc(C(=O)NCC2CCCO2)c(=O)c2cc(S(=O)(=O)N3CCCCCC3)ccc21 (stereo unspecified)	1.5%
118	O=C(CCNc1n[nH]c(=O)[nH]c1=O)N/N=C/c1ccc(Cl)cc1	5.9%
119	COc1ccc(C(=O)Nc2ccc(O)c3ccccc23)cc1OC	-9.0%
120	Nc1nnc(CCCCc2cccs2)o1	8.0%

(continued)
#	molecule	VDR inhibitor
121	N#Cc1c(NC(=O)CSc2nc3ccccc3s2)sc2c1CCCC2	-7.1%
122	CCN(CC)C(=O)c1nc[nH]c1C(=O)N1CCN(C(=O)OC(C)(C)C)CC1	-10.9%
123	Oc1ccccc1C1N=C(c2ccccc2)NC(c2ccccc2)=N1	-6.2%
124	CCCCNC(=O)Nc1c(C)cc(SC#N)cc1C	-4.3%
125	Cc1ccccc1C(=O)NC1CCS(=O)(=O)C1 (stereo unspecified)	-11.8%
